AF4-AF9 inh = blocks AF4 peptide binding to human AF9; P42568; AlphaScreen, biotin-AF4 peptide binding to FLAG-AF9; inhibition, % at 10 µM; actives 0.47% (n = 350,000); AID 651704;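 active means every replicate reaching a set inhibition limit, whatever the replicate mean, cut at about 25% in these data; inconclusive means mean inhibition reaches that limit but some replicates miss it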;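 further: 0% = plate neutral control median and 100% = total signal loss; the record names both 10 and 1 µM as test concentration; the first replicate is given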
Target sequence (P42568 whole entry, looked up): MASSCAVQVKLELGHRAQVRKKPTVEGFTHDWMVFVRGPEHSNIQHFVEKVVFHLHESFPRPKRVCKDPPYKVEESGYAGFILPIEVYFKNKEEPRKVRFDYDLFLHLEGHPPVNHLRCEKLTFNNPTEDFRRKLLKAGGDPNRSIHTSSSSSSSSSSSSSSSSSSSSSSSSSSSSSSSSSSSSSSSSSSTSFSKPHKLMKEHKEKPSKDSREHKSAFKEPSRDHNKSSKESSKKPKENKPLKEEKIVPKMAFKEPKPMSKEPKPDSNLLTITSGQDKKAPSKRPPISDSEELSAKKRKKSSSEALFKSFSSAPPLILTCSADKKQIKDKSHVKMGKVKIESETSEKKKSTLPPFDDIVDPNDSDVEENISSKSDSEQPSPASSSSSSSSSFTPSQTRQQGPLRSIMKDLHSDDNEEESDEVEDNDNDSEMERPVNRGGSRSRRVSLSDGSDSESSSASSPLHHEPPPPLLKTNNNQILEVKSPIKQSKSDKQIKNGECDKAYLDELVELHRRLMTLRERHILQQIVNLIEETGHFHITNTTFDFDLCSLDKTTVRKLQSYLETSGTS
FGF22 binding = binders of recombinant human FGF22 by thermal shift | Q9HCT0 | SYPRO orange fluorescence; percent of sucrose octasulfate shift, DMSO zero | calls only at 9.99 µM | actives 1.5% (n = 340,000) | AID 651658;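 active means melting point raised past a set limit in the mean and every replicate; inconclusive means no clear call; three in four hits are not shown here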
Target sequence (Q9HCT0 whole entry, looked up): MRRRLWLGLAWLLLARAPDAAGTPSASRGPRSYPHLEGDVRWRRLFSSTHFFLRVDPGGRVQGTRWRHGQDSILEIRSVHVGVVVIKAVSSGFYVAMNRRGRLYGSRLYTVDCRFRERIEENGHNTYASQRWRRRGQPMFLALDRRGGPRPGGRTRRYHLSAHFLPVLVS
Vif A3G = HIV-1 Vif–A3G interaction blockers – biochemical, TR-FRET, GST-Vif 1-94, biotin-A3G peptide, dose response retest, primary screen (AID 1117319). TR-FRET GST-Vif / biotin-A3G peptide binding; higher % means a stronger effect; test concentration not given here; strong numbers were not always called active. one-dose inhibition, %; IC50 in µM for titrated hits. actives 0.57% (n = 260,000);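 active means above the screen mean plus three standard deviations and confirmed in dose response; inconclusive means results disagree or hit not tested in dose response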;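 further: Vif residues 1-94 fused to GST binding biotinylated APOBEC3G peptide 110-148; 0% = full assay without inhibitor and 100% = GST in place of GST-Vif; retest series ran down from 100 µM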
Ecoli rRNA inh = inhibits bacterial ribosomal RNA function over humanized ribosomes. E. coli WT GFP vs humanized-ribosome RFP mutants, fluorescence, 24 h; hits give low values; DMSO median 0, no signal -100. GFP signal change (wild-type ribosome), % (no concentration beside the values). actives 1.6% (n = 350,000);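 active means significant combined selectivity score with lowered wild-type GFP, culture density cut under 30%, mutant RFP and density less affected; inactive means any of these conditions unmet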; further: one replicate is shown; some compounds called inactive have numbers as strong as hits
HNF4A DNA FP = change in binding of human HNF4 alpha to DNA; AID 1224865; activity change, % at 10 µM; actives 0.3% (n = 360,000); HNF4a-FITC DNA binding, fluorescence polarization, 1 h; in the data active means activity change above about 30%, passing the limit was not always enough;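 further: controls were the assay level and a saturating level of protein; the project sought stronger binding though the title names inhibitors; some compounds called inactive have numbers as strong as hits; positive values seem to mean higher polarization but the record does not say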
ALR H2O2 inh = inhibitors of human sulfhydryl oxidase ALR; P55789; AID 485317; purified ALR, DTT oxidation, H2O2 HRP-luminol luminescence; actives 3.8% (n = 290,000); inhibition, % (test concentration not listed);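 active means mean and each replicate at 75% or more; inconclusive means only one of the two met; inactive means neither met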;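 further: stock transfer was 7.5 nL into about 7.5 µL; 0% = neutral wells and 100% = wells with inactivated enzyme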
Target sequence (P55789 whole entry, looked up): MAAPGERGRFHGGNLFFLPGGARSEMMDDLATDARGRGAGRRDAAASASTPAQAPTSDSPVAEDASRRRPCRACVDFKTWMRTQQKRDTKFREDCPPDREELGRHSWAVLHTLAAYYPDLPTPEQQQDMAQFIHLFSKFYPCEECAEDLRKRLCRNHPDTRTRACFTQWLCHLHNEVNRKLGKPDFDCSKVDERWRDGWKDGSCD
E coli growth = E. coli growth inhibition; Escherichia coli growth, OD600, 23 h; hits give low values; OD600 absorbance (test concentration not listed); actives 0.21% (n = 330,000); AID 1053175;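 active means OD600 absorbance below the run mean of sample wells minus 3.6 SD, in any replicate, cut at about 0.56 in these data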;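 further: stock transfer was 300 nL into about 60 µL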
Ecoli rRNA inh OD600 = also measured in Ecoli rRNA inh; calls as there; OD600 change, %; measured here: OD600 growth;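 optical density of the mix in the first replicate; 0 = DMSO median and -100 = no signal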
Ecoli rRNA inh RFP = second read-out of Ecoli rRNA inh, no call of its own (marks repeat the call); RFP signal change, %; measured here: RFP humanized mutant strains;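 first replicate; 0 = DMSO median and -100 = no signal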
* = called active by the depositor; i = inactive; ? = inconclusive; . = no result given. This is a subset (hit frequency here may not be typical).

Sample of the layout (5 entries):
SMILES	AF4-AF9 inh	FGF22 binding	Vif A3G	Ecoli rRNA inh	Ecoli rRNA inh OD600	Ecoli rRNA inh RFP	HNF4A DNA FP	ALR H2O2 inh	E coli growth
Cc1ccc(C(NC(=O)C2CCN(Cc3ccc(Cl)c(Cl)c3)CC2)c2ccccn2)cc1 (centres undefined)	6.1	i	.	-45	-67	1.5	2.3	.	.
Cc1c(C(=O)c2cccc([N+](=O)[O-])c2)c2ccccn2c1CCC#N	.	.	-3%	.	.	.	-4.4	10	0.64
COC(=O)[C@H](CCSC)NC(=O)Nc1cc(OC)cc(OC)c1	-4.2	i	20%	9	6	3.7	0.3	-19	0.7
O=c1[nH]n(-c2ncnc3c2cnn3-c2ccccc2)c(=O)c2ccccc12	.	.	5%	.	.	.	-0.9	6	0.65
Cn1c(CCNC(=O)c2ccc(F)cc2)nc2ccccc21	.	.	?	.	.	.	-3.7	-36	0.69

Main list, repeating the preview:
SMILES	AF4-AF9 inh	FGF22 binding	Vif A3G	Ecoli rRNA inh	Ecoli rRNA inh OD600	Ecoli rRNA inh RFP	HNF4A DNA FP	ALR H2O2 inh	E coli growth
Cc1ccc(C(NC(=O)C2CCN(Cc3ccc(Cl)c(Cl)c3)CC2)c2ccccn2)cc1 (centres undefined)	6.1	i	.	-45	-67	1.5	2.3	.	.
Cc1c(C(=O)c2cccc([N+](=O)[O-])c2)c2ccccn2c1CCC#N	.	.	-3%	.	.	.	-4.4	10	0.64
COC(=O)[C@H](CCSC)NC(=O)Nc1cc(OC)cc(OC)c1	-4.2	i	20%	9	6	3.7	0.3	-19	0.7
O=c1[nH]n(-c2ncnc3c2cnn3-c2ccccc2)c(=O)c2ccccc12	.	.	5%	.	.	.	-0.9	6	0.65
Cn1c(CCNC(=O)c2ccc(F)cc2)nc2ccccc21	.	.	?	.	.	.	-3.7	-36	0.69
Cc1cccc(C)c1OCc1cc(C(=O)N2CCC(c3ccccc3)CC2)no1	0.5	i	.	.	.	.	0.9	-4	0.69
O=C(COC(=O)c1ccc2ncsc2c1)Nc1cc([N+](=O)[O-])ccc1Cl	-1.2	i	-13%	-7	-25	-0.2	3.3	0	0.75
c1ccc(-c2csc(N3CCOCC3)n2)cc1	.	.	1%	.	.	.	-1.8	14	0.66
COc1ccc(-n2c(COc3ccc(C)cc3)nnc2SCC(N)=O)cc1	.	.	-2%	.	.	.	1.5	0	0.74
CCN1CCN(S(=O)(=O)c2ccc3c(c2)NC(=O)CS3)CC1	2.5	i	-5%	0	0	-4.1	-2.3	-3	0.66
CCOC(=O)c1cccc(-n2c(C)nc3ccccc3c2=O)c1	.	.	?	.	.	.	-2.5	-23	0.71
C[C@H]1CN([C@@H](C)CO)S(=O)(=O)c2ccc(-c3ccncc3)cc2O[C@@H]1CN(C)S(=O)(=O)c1ccccc1F	3.5	i	.	-20	-13	9.9	.	.	.
CCC/C=N/NC(=O)c1cc(-c2ccccc2)nc2ccccc12	.	.	-7%	.	.	.	-1.2	-11	.
CC(C)(CO)NC(=O)CCCOc1ccc(Cl)cc1Cl	.	.	-4%	.	.	.	-2.5	-5	0.73
NCCCCCC(=O)N/N=C/c1coc2ccccc2c1=O	-2.3	i	14%	12	-6	4.2	5.7	18	.
O=C(O)CSc1nnc(COc2cccc3ccccc23)n1Cc1ccccc1	-2.4	i	?	-18	-37	0.2	2.5	.	0.71
CCN1CCCC1CNS(=O)(=O)c1ccc(C(=O)Nc2ccccc2)cc1 (centres undefined)	.	.	0%	.	.	.	1.5	-6	0.71
COCc1cc(C)nc(SC)c1C#N	-4.8	i	.	8	14	2.6	-2.9	-4	0.62
CN1CCN(C(=O)C[C@@H]2CC[C@H]3[C@@H](COC[C@H](O)CN3C(=O)C3CC3)O2)CC1	1.5	i	.	1	-1	2.2	.	.	.
CCOC(=O)N1CCC(NS(=O)(=O)c2ccccc2)CC1	-1.4	i	.	6	5	2.0	3.3	-8	0.69
Cc1ccc(C)c(N(C(=O)CCC(=O)Nc2cc(C)on2)C(C(=O)NC2CCCC2)c2ccco2)c1 (centres undefined)	.	.	-3%	.	.	.	1.7	-5	0.7
O=C(NCCCCc1ccccc1)C1CC(c2ccc(C(F)(F)F)cc2)=NO1 (centres undefined)	-4.2	i	-10%	-4	-7	1.8	-9.5	-12	0.73
O=C(c1cccnc1)N1C[C@@H]2[C@H](c3ccccc31)[C@H](CO)N2CC1CCCCC1	-0.3	i	.	-7	-9	-2.5	.	.	.
NCCNc1cc(N2CCCC2)ccc1[N+](=O)[O-]	-0.8	i	-7%	8	12	1.5	-3.9	-25	0.67
CN(c1ccccc1)S(=O)(=O)c1ccc(Cl)c(C(=O)Nc2ccncc2)c1	-1.8	i	.	.	.	.	-1.0	-5	0.7
Cc1c(Cc2ccccc2)c(=O)oc2c(C)c(OCC(=O)NCC3CCC(C(=O)O)CC3)ccc12 (centres undefined)	0.1	i	.	-14	-10	4.6	-2.4	.	0.77
COC(=O)CSc1nsc(SCC(=O)OC)n1	.	.	0%	.	.	.	-0.3	3	0.66
C[C@@H]1CCCCO[C@@H](CN(C)C(=O)NC2CCCCC2)[C@@H](C)CN([C@@H](C)CO)C(=O)c2cc(NC(=O)NC3CCCCC3)ccc2O1	0.2	i	.	3	7	-3.2	.	.	.
C[C@@H]1CCCCO[C@@H](CN(C)S(=O)(=O)c2ccc(Cl)cc2)[C@@H](C)CN([C@H](C)CO)C(=O)c2cc(NC(=O)CCC(F)(F)F)ccc2O1	-2.5	i	.	4	-11	-3.1	.	.	.
OC[C@H]1[C@@H](c2ccc(C#Cc3ccccc3F)cc2)[C@H]2CN(CC3CCOCC3)CCCCN21	7.7	i	.	-5	-12	5.9	.	.	.
CCOc1ncccc1C(=O)Nc1ncc(C)s1	-1.1	i	-1%	4	-1	-0.3	2.9	17	0.66
CCOc1ccc(-n2c(=O)cc(N3CCN(c4ccccc4)CC3)[nH]c2=O)cc1	.	.	3%	.	.	.	9.0	.	0.73
Cc1ccc(NC(=O)CSCC#N)cc1Cl	.	.	-2%	.	.	.	4.7	99*	.
CC(C)(C)n1nnnc1C(c1ccccc1)N1CCN(c2ncc(C(F)(F)F)cc2Cl)CC1 (centres undefined)	0.5	i	.	4	-1	-3.6	1.2	.	.
CCc1ccccc1NC(=S)N(Cc1cccnc1)Cc1ccco1	0.5	i	4%	-11	-18	-5.1	2.1	-3	0.71
C[C@H]1CN([C@@H](C)CO)C(=O)Cc2cc(NS(=O)(=O)c3cccs3)ccc2O[C@@H]1CN(C)Cc1ccc(C(=O)Nc2ccccc2N)cc1	0.0	i	.	-3	-2	0.3	.	.	.
O=C(c1cccc(F)c1)N1CCN=C1SCc1cccnc1	-14	i	0%	5	-7	-0.6	-20	100*	0.77
O=C(NCCNS(=O)(=O)c1ccccc1)N1CCOCC1	.	.	-10%	.	.	.	1.4	0	0.67
O=C(Nc1ccccc1)Nc1ccc2c(c1)[C@@H]1C[C@H](CC(=O)N3CCCCC3)O[C@@H](CO)[C@@H]1O2	-1.0	i	.	1	1	-1.6	.	.	.
COCCOC(=O)C1=C(C)NC(=S)NC1c1ccc(OCC(=O)N2CC(C)OC(C)C2)c(OC)c1 (centres undefined)	-17	i	.	2	12	-3.7	3.9	.	0.67
Cc1nn(Cc2c(F)c(F)c(F)c(F)c2F)c(C)c1NC(=O)c1nn(C)c(C)c1Br	-0.4	i	.	-2	2	3.3	1.4	1	0.68
Cn1c(SCC(=O)NC2CC2)nnc1-c1ccccn1	-1.9	i	-1%	2	9	1.0	-0.9	-4	0.7
COC(=O)C1=C(C(C)=O)C(c2ccc(C(=O)OC)cc2)n2nnnc2N1 (centres undefined)	.	.	7%	.	.	.	-1.4	-4	0.7
O=C(O)CSc1cc(C(=O)c2cc(F)ccc2O)cn2c(=O)c3c(-c4ccccc4)csc3nc12	4.1	i	8%	-16	-26	-16	13	19	0.67
CCCCn1c(N)c(N(CCC(C)C)C(=O)C2=NN(c3ccccc3)C(=O)CC2)c(=O)[nH]c1=O	-3.8	i	1%	12	13	0.6	2.8	-2	0.69
Cc1cccc(C(=O)OC2CCOC2=O)c1O (centres undefined)	-2.0	i	.	2	6	0.4	2.7	-3	0.7
CCC(C)c1ccccc1NC(=O)c1cccc(-n2cnnn2)c1 (centres undefined)	-1.1	i	3%	-21*	-10*	0.5*	-4.4	-6	0.61
CN(C)c1cccc(C(=O)OCC(=O)c2ccc[nH]2)c1	3.1	.	17%	7	0	-0.1	-1.6	.	0.66
CC1(C)NC(=O)N(CCOCCSc2ccccc2)C1=O	-6.0	i	22%	9	5	-4.2	-1.8	-7	0.7
O=C(c1ccc(F)cc1Cl)N(c1ccccn1)C1CCCCC1	-3.1	i	-2%	6	4	-0.3	0.3	4	0.71

(listing goes on)
SMILES	AF4-AF9 inh	FGF22 binding	Vif A3G	Ecoli rRNA inh	Ecoli rRNA inh OD600	Ecoli rRNA inh RFP	HNF4A DNA FP	ALR H2O2 inh	E coli growth
COc1ccc(NC(=O)N(C)C[C@H]2Oc3ccc(NC(=O)CCC(F)(F)F)cc3CC(=O)N([C@H](C)CO)C[C@@H]2C)cc1	-3.5	i	.	-1	6	1.0	.	.	.
CNS(=O)(=O)c1cc(NC(=O)CCNC(=O)c2ccco2)ccc1C	-0.1	i	.	4	0	-0.7	1.9	-3	0.71
Cc1ccc(S(=O)(=O)N(CC(=O)c2ccc(Cl)cc2)C(=O)N2CCN(C)CC2)cc1	2.6	i	3%	0	-3	-0.5	3.1	-4	0.67
Nc1nc(CSc2nc3ccccc3s2)nc(N2CCOCC2)n1	-2.1	i	.	-1	-3	3.8	3.3	99*	0.7
CCc1nnc(NC(=O)C2CCC(CNc3c(N4CCCCC4)c(=O)c3=O)CC2)s1 (centres undefined)	?	i	21%	17	9	1.4	-0.6	-7	0.72
C[C@@H]1CN([C@H](C)CO)C(=O)c2cc(C#CC3(O)CCCC3)cnc2O[C@H]1CN(C)C(=O)Nc1ccc2c(c1)OCO2	-0.9	i	.	3	2	-1.2	.	.	.
CCNC(=O)[C@@H]1[C@@H](CO)[C@@H]2Cn3c(ccc(C4=CCCC4)c3=O)[C@@H]2N1CC1CC1	0.5	i	.	1	4	0.6	.	.	.
O=C(CCSc1ccccc1)Nc1ccccc1C(=O)N1CCCC1	.	.	1%	.	.	.	-0.7	0	0.64
CN(C)CC(=O)Nc1ccc2c(c1)[C@H]1C[C@@H](CC(=O)NCc3ccncc3)O[C@H](CO)[C@H]1O2	-1.0	i	.	4	3	-2.2	.	.	.
COC(=O)C[C@@H]1C[C@@H]2c3cc(NC(=O)c4ccc5c(c4)OCO5)ccc3O[C@@H]2[C@@H](CO)O1	-0.5	i	.	-3	7	0.8	.	.	.
CCCc1cc(=O)oc2cc(OCc3ccc(C(=O)O)cc3)ccc12	-7.7	i	0%	-9	-10	-1.5	-2.6	16	0.63
Cc1ccc(CC2C(=O)N(c3cc(Cl)ccn3)C(=O)C2C)cc1 (centres undefined)	-1.9	i	-11%	-20*	-5.5*	2.8*	-0.2	17	0.69
Cc1nc2cc(F)ccc2n1C1CCN(C(=O)c2ccc(F)cc2F)CC1	-0.8	i	11%	-2	-7	-1.3	-4.5	1	0.7
CCOc1ccc(S(=O)(=O)Nc2ccc(C(=O)NCC(C)(C)N3CCOCC3)cc2)cc1	-1.2	i	-1%	3	6	-0.7	1.4	0	0.66
Cc1cc(C)n2nc(SCc3ccc(F)cc3Cl)nc2n1	-2.8	i	-11%	-10	-13	-1.8	4.0	-4	0.67
CC(=O)Nc1ccc(CN2CCCCCCC2)cc1	.	.	18%	.	.	.	-2.7	-16	0.64
COc1ccc(N=C2NC(=O)/C(=C\c3ccco3)S2)cc1	3.3	i	?	-13	19	3.9	-1.2	4	0.74
